Screening data from PubChem.
PrP UTR inh: inhibition of PrP 5' UTR reporter expression; cell-based PrP 5' UTR mRNA reporter, plate reader; inhibition, % (no concentration beside the values); actives 0.35% (n = 340,000); AID 488862, 2010;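 active = every replicate at 50% or more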;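 also: 0 = median of the neutral control wells; tested in H4 reporter cells; numbers are from one replicate; inactives centre near -14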
Autofluor counter: compound fluorescence in toxin protease inhibitor counterscreen; actives 3.1% (n = 360,000); compound autofluorescence counterscreen, microsphere flow cytometry; hits give high values; AID 624483; fluorescence intensity (no concentration beside the values);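 active = at least 3 SD above the mean of all compounds, about 16000 in these data; inconclusive = too few beads counted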;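 also: 100 nL of 1 mM stock went into each well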
Mtb hypoxia rep: PubChem AID 1159583. actives 0.1% (n = 300,000). fluorescence inhibition, % (concentration not given with the values). M. tuberculosis hypoxia-regulated fluorescent reporter, fluorescence;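 active = 35 to 45% if threefold the growth effect, above 45% if 1.5-fold the growth effect; inactive = the rest, general growth blockers included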;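 also: wells of about 50 µL received 100 nL stock; 0% = vehicle wells and 100% = reference inhibitor wells; whole bacteria with a GFP reporter of the hypoxia response; strong numbers were not always called active; many hits fall short of the cut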
ugtP null kill: growth inhibition of ugtP-null S. aureus, primary screen, RN4220 ugtP deletion, OD600. growth inhibition, % (test concentration not listed). actives 0.54% (n = 330,000). 16 h; some inactives read as strong as hits;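 active = z-score under -3 and OD600 up to 0.15 on both plates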;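 also: plate controls were untreated wells for no effect and antibiotic for full effect; wells of about 80 µL received 100 nL stock; the first replicate is given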
RN4220 kill: growth inhibition of S. aureus RN4220, primary screen, OD600 | 16 h | actives 0.33% (n = 330,000) | inhibition, % (no concentration beside the values);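 active = z-score of -3 or lower and OD600 up to 0.18 on both plates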;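 also: plate controls were untreated cells for no effect and reference antibiotic for full effect; stock transfer was 100 nL into about 80 µL; one replicate is shown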
BJeLR viability: MLPCN primary cell-based screen for lethality selective to Ras in HRASV12 cells; BJeLR (HRASV12) viability, CellTiter-Glo ATP luminescence, 48 h; reference of the scale not given here; inhibition, % (test concentration not listed); actives 0.17% (n = 300,000);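 active = replicate mean above 50%; inconclusive = above 50% but judged a plate artefact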;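 also: 50 nL library stock added to about 25 µL; numbers are from one replicate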
Mtb hypoxia rep growth: second read-out of Mtb hypoxia rep, no call of its own (marks repeat the call); growth inhibition, %; measured here: M. tuberculosis growth (absorbance);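 0% = vehicle and 100% = reference antibiotic; read after six days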
Starred values were filed as active, the others as inactive; ? = inconclusive; nt = no result given.

(1) CCN(CC)c1ccc(NC(=O)c2cccc(C)c2OC)c(C)c1
(2) NC(=O)C1CCN(C(=O)CCSc2ccccc2)CC1
(3) Cc1c(NS(=O)(=O)c2cc(C(=O)NCc3cccnc3)cc(Cl)c2Cl)c(=O)n(-c2ccccc2)n1C
(4) O=C(COc1ccccc1[N+](=O)[O-])Nc1ccc(N2CCN(C(=O)c3cccs3)CC2)cc1
(5) CC(C)CCNC(=O)C1CCC(CNc2c(N3CCCC3)c(=O)c2=O)CC1 (stereo not drawn)
(6) COc1ccc(OC)c(COC(=O)c2cccc(S(=O)(=O)N3CCCCC3)c2)c1
(7) O=C(CSCC(=O)NN=Cc1ccccc1O)NN=Cc1ccccc1O
(8) O=[N+]([O-])c1ccc(C2CCCCC2=NOCc2cccc(F)c2)c([N+](=O)[O-])c1 (stereo not drawn)

Screen / compound no.,1,2,3,4,5,6,7,8
PrP UTR inh,-72.3,-48.7,-12.1,1.8,-0.1,0.9,-24.6,nt
Autofluor counter,11407,2326,nt,3734,5486,nt,4112,nt
Mtb hypoxia rep,7.1,nt,4.2,7.5,-7.0,4.5,-0.3,-8.1
Mtb hypoxia rep growth,3.2,nt,3.9,11.2,9.4,1.6,2.9,7.4
ugtP null kill,10.2,2.0,-2.9,3.4,6.1,4.4,2.3,-12.5
RN4220 kill,8.6,1.1,6.4,2.9,2.2,2.0,2.8,1.9
BJeLR viability,nt,-3.6,10.3,21.2,4.9,nt,nt,nt

(9) CN1CCN(C(=O)CSc2nc3c(c(=O)n(C)c(=O)n3C)n2C)CC1
(10) Nc1cc(=O)[nH]c(SCC(=O)Nc2cccc(Cl)c2Cl)n1
(11) CN(C(=O)COC(=O)c1cccc(S(=O)(=O)N2CCCCC2)c1)C1CCS(=O)(=O)C1 (stereo not drawn)
(12) Cc1nc(NC(=O)c2ccc(Cl)cc2)sc1Cc1ccc2c(c1)OCO2
(13) CCOc1ccccc1-n1c(O)c(C=Nc2ccc(N(CC)CC)cc2)c(=O)[nH]c1=O
(14) CCOc1ccc(OCCCC(=O)Nc2nc3ccccc3[nH]2)cc1
(15) COc1ccccc1N1CCN(C(=O)c2ccc(CN3CCc4ccccc4C3)cc2)CC1
(16) Cc1ccc(C(=O)NCC(=O)OCCOc2cccc(Cl)c2)cc1

Screen / compound no.,9,10,11,12,13,14,15,16
PrP UTR inh,-18.9,-16.3,-15.6,-40.9,-6.5,-13.5,-18.3,-6.5
Autofluor counter,3975,4554,?,2632,3397,4089,4393,5142
Mtb hypoxia rep,-8.1,-3.8,2.9,-3.4,nt,12.1,7.8,2.7
Mtb hypoxia rep growth,8.1,7.7,-1.5,-3.8,nt,-5.9,11.5,2.0
ugtP null kill,4.9,-12.0,5.1,-10.4,nt,6.3,-3.2,4.2
RN4220 kill,-1.3,-1.3,1.7,0.2,nt,4.9,1.0,1.7
BJeLR viability,-0.1,-7.4,0.6,-4.5,3.9,1.9,-3.4,2.3

Copied from the entries so far, 11 compounds:
(6) COc1ccc(OC)c(COC(=O)c2cccc(S(=O)(=O)N3CCCCC3)c2)c1
(7) O=C(CSCC(=O)NN=Cc1ccccc1O)NN=Cc1ccccc1O
(8) O=[N+]([O-])c1ccc(C2CCCCC2=NOCc2cccc(F)c2)c([N+](=O)[O-])c1 (stereo not drawn)
(9) CN1CCN(C(=O)CSc2nc3c(c(=O)n(C)c(=O)n3C)n2C)CC1
(10) Nc1cc(=O)[nH]c(SCC(=O)Nc2cccc(Cl)c2Cl)n1
(11) CN(C(=O)COC(=O)c1cccc(S(=O)(=O)N2CCCCC2)c1)C1CCS(=O)(=O)C1 (stereo not drawn)
(12) Cc1nc(NC(=O)c2ccc(Cl)cc2)sc1Cc1ccc2c(c1)OCO2
(13) CCOc1ccccc1-n1c(O)c(C=Nc2ccc(N(CC)CC)cc2)c(=O)[nH]c1=O
(14) CCOc1ccc(OCCCC(=O)Nc2nc3ccccc3[nH]2)cc1
(15) COc1ccccc1N1CCN(C(=O)c2ccc(CN3CCc4ccccc4C3)cc2)CC1

Screen / compound no.,6,7,8,9,10,11,12,13,14,15
PrP UTR inh,0.9,-24.6,nt,-18.9,-16.3,-15.6,-40.9,-6.5,-13.5,-18.3
Autofluor counter,nt,4112,nt,3975,4554,?,2632,3397,4089,4393
Mtb hypoxia rep,4.5,-0.3,-8.1,-8.1,-3.8,2.9,-3.4,nt,12.1,7.8
Mtb hypoxia rep growth,1.6,2.9,7.4,8.1,7.7,-1.5,-3.8,nt,-5.9,11.5
ugtP null kill,4.4,2.3,-12.5,4.9,-12.0,5.1,-10.4,nt,6.3,-3.2
RN4220 kill,2.0,2.8,1.9,-1.3,-1.3,1.7,0.2,nt,4.9,1.0
BJeLR viability,nt,nt,nt,-0.1,-7.4,0.6,-4.5,3.9,1.9,-3.4

(16) Cc1ccc(C(=O)NCC(=O)OCCOc2cccc(Cl)c2)cc1

Screen / compound no.,16
PrP UTR inh,-6.5
Autofluor counter,5142
Mtb hypoxia rep,2.7
Mtb hypoxia rep growth,2.0
ugtP null kill,4.2
RN4220 kill,1.7
BJeLR viability,2.3

(list continues)
(17) COc1ccc(N2CCN(C(=O)[C@@H]3CCCN3C3=NS(=O)(=O)c4ccccc43)CC2)cc1
(18) CCC(=O)Nc1ccc(/C(C)=N/NC(=O)c2c(Br)c(C)nn2C)cc1
(19) O=C1CC(c2ccccc2)Sc2nc(-c3ccccc3)c(-c3ccccc3)n21 (stereo not drawn)
(20) O=C(Cn1c(=O)sc2ccccc21)N1CCOCC1
(21) CCOc1cc(/C=C/C(=O)c2ccc(O)cc2)ccc1OCC(=O)N(C)C
(22) COc1ccc(OC)c(NC(=O)CCN2CCN(c3ccccc3)CC2)c1
(23) CCOc1ccc(NC(=O)NNC(=O)COc2ccc3ccccc3c2)cc1
(24) CC(NS(=O)(=O)/C=C/c1ccccc1)c1ccccc1 (stereo not drawn)

Screen / compound no.,17,18,19,20,21,22,23,24
PrP UTR inh,-13.4,-5.7,-3.1,-28.3,-14.3,-3.4,-16.0,-23.7
Autofluor counter,3436,6867,2426,4214,7629,9651,4933,2184
Mtb hypoxia rep,-9.1,nt,3.6,0.8,2.9,0.7,-0.9,nt
Mtb hypoxia rep growth,3.9,nt,1.9,-2.5,13.4,-0.1,6.9,nt
ugtP null kill,-3.2,nt,11.7,-3.0,1.0,2.2,10.4,nt
RN4220 kill,-4.5,nt,-7.7,2.0,26.2,8.2,2.9,nt
BJeLR viability,nt,0.8,-4.9,3.4,-0.3,-8.1,1.2,1.3

(25) CC(OC(=O)CCc1nc2ccccc2[nH]c1=O)C(=O)c1ccccc1 (stereo not drawn)
(26) Cc1cccc(NC(=O)c2ccc(S(=O)(=O)N3CCN(C)CC3)cc2)c1C
(27) O=c1c2cc(-c3ccccc3)sc2ncn1-n1cccc1
(28) CCCC(=O)Nc1sc2c(c1C#N)CCCC2
(29) Cc1cccc(OCC(=O)Nc2nc(-c3ccncc3)cs2)c1
(30) CCOC(=O)CC(=O)CSc1nc2c(sc(=S)n2-c2ccc(OCC)cc2)c(=O)[nH]1
(31) Cc1c(CCO)c(=O)n(C)n1C(=O)c1ccc(F)cc1
(32) Cc1snc(S(=O)(=O)/C(C#N)=N\Nc2ccccc2)c1C#N

Screen / compound no.,25,26,27,28,29,30,31,32
PrP UTR inh,-28.8,-13.0,-72.9,-26.6,-5.0,-8.2,-16.8,-13.3
Autofluor counter,4909,5517,4720,5683,3414,8843,5409,3186
Mtb hypoxia rep,3.8,8.4,6.8,nt,5.7,0.6,5.6,nt
Mtb hypoxia rep growth,1.7,5.8,7.2,nt,0.6,1.2,2.5,nt
ugtP null kill,3.2,19.8,-0.3,-1.6,8.9,-4.0,1.5,nt
RN4220 kill,6.7,3.4,0.9,-7.1,3.5,11.2,0.5,nt
BJeLR viability,-0.5,-27.8,9.3,-3.3,nt,-1.6,3.7,4.9

(33) CC(C)n1c(CNC(=O)c2ccccc2)nc2ccccc21
(34) NC(=O)C1CCN(c2cc(Cl)ccc2[N+](=O)[O-])CC1
(35) CCCCCC1CC(CC(=O)NC(=S)Nc2ccc([N+](=O)[O-])cc2)C(=O)O1 (stereo not drawn)
(36) Cc1ccc(S(=O)(=O)N(Cc2ccccc2)c2ccccc2C(=O)NCc2ccco2)cc1
(37) O=C(NN=Cc1cccs1)c1ccccn1

Screen / compound no.,33,34,35,36,37
PrP UTR inh,-11.5,-106.0,-9.3,-28.9,nt
Autofluor counter,9530,4558,2393,9833,nt
Mtb hypoxia rep,8.3,-5.8,nt,-17.2,3.7
Mtb hypoxia rep growth,11.8,-18.8,nt,-9.1,2.7
ugtP null kill,-1.1,-2.5,3.4,-11.2,5.9
RN4220 kill,-2.7,0.1,1.4,2.1,3.1
BJeLR viability,-5.9,-0.2,-8.9,5.2,nt
